TRPML1 ag: qHTS for Agonists of the Human Mucolipin Transient Receptor Potential 1 (TRPML1); AID 624414, 2012; Mucolipin-1 (Homo sapiens), Q9GZU1; TRPML1-expressing cells, Ca2+ dye fluorescence, FDSS; host cell line not named in the record; reference of the full effect not given here; activation, % (concentration not given with the values); actives 0.12% (n = 410,000); in the data active = activation above about 50%; inconclusive = about 30% to 50%; inactive = below about 30%; note: 0% is about no effect; the text of the record puts the active cut at 80%
Target sequence (Q9GZU1 whole entry, looked up): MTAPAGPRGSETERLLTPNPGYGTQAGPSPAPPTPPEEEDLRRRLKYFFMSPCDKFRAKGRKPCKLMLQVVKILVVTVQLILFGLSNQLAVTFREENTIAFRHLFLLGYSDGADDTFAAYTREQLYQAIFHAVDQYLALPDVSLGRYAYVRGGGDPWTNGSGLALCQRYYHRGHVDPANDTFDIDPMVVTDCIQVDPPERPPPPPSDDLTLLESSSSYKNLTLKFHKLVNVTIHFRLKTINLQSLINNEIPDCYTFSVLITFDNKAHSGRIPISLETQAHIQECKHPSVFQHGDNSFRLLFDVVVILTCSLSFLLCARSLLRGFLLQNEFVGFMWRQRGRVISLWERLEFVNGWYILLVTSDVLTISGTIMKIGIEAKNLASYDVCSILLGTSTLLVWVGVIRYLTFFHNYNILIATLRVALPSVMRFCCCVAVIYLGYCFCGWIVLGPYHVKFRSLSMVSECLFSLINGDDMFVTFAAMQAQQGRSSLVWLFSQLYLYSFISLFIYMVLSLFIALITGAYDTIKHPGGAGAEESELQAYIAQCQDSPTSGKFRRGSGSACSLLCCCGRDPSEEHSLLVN
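Cells: TRPML1-DL, 1X Tet inducer, ~16 h at 37 degrees C/5% CO2. Dye: ABD Ca8 no-wash + quencher, 45-90 min RT. Read: 10 s baseline, compound add, 110 s agonist phase; 54-4 EC80 (4uM final), 110 s antagonist phase.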
Six1-Eya2 inh: qHTS Assay for Inhibitors of the Six1/Eya2 Interaction; AlphaScreen GST-Six1/His-Eya2 binding, biochemical; hits give low values; control for the full effect not named in the record; AID 651725, 2012; Homeobox protein SIX1 (Homo sapiens) + Protein phosphatase EYA2 (Homo sapiens), …; actives 0.56% (n = 360,000); activity change, % (concentration not given with the values); in the data active = activity change below about -65%; inconclusive = about -30% to -65%; inactive = above about -30%; note: % is set by controls: 0 for no effect and ±100 for the full control effect
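GST-Six1 + His-Eya2 (5X stock: 250/500 nM); Tris pH 8.0, 300 mM NaCl, 0.05% BSA, 0.02% Tween 20; GSH donor/Ni acceptor beads; 1 h 37 °C dark; AlphaScreen readout.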
CtBP-E1A blk: qHTS Assay for Inhibitors of the CtBP/E1A Interaction | activity change, % (no concentration beside the values) | CtBP / adenovirus E1A interaction (AlphaScreen) | actives 0.49% (n = 340,000) | AlphaScreen GST-E1A/His-CtBP binding, 1536-well; hits give low values; control for the full effect not named in the record | AID 651724, 2012; in the data active means activity change below about -65%; inconclusive means about -30% to -65%; inactive means above about -30%; note: % is set by controls: 0 for no effect and ±100 for the full control effect; compound concentration not given in the record
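In 5 uL wells, 23 nL compound meets equimolar GST-E1A and His-CtBP (5X stock 125 nM each) for 2 h, 37 °C. Beads (5X, 50 ug/mL) then 1 h, 37 °C, dark.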
D2 ag: Beta-Arrestin HTS for Positive Allosteric Modulators of the Human D2 Dopamine Receptor: Agonists; D(2) dopamine receptor (Homo sapiens), P14416; DiscoveRx PathHunter D2 beta-arrestin, luminescence, 90 min; 100% = 57 uM dopamine signal; activation, % (no concentration beside the values); actives 0.084% (n = 360,000); AID 624465, 2012; in the data active = activation above about 40%; inconclusive = about 15% to 40%; inactive = below about 15%; note: compound concentration not given in the record; the text of the record calls up to 30% inactive
Target sequence (P14416 whole entry, looked up): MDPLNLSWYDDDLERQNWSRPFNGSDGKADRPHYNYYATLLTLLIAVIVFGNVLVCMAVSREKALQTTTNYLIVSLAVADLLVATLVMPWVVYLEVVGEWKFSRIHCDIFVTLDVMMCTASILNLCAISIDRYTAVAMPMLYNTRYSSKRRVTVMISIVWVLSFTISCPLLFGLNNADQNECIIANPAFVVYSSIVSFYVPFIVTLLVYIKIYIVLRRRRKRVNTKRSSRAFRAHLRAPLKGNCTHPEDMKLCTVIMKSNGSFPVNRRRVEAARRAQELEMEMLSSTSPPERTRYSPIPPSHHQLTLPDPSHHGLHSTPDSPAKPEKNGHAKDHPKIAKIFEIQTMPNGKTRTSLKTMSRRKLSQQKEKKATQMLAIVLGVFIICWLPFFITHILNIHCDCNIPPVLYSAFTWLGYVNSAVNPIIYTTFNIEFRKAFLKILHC
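Agonist mode: compounds alone added to overnight-plated D2 PathHunter cells for 90 min at 37 C, with 57 uM final dopamine (EC100) defining full response. Beta-arrestin recruitment detected by chemiluminescent reagent, read after 1 h at ambient temperature.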
PINK1 modulator: A Quantitative High throughput Screen to Identify Chemical Modulators of PINK1 Expression | PINK1 immunofluorescence, high-content cytometry, 24 h | Potency, µM (doses to about 76.6 µM), inactives show top-dose activation (PINK1 increase), usual class: activators | actives 0.2% (n = 410,000); active = well fitted activation curve with a large enough effect; inconclusive = small, poorly fitted or top-dose-only effect; inactive = flat fitted curve, though single readings scatter; cell line not stated here;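 note: potency is the fitted concentration of half-maximal effect; % of control where 0% means no effect; nearly all actives have a fitted effect of over 65% in size; a mitochondrial uncoupler was the plate control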
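Cells are seeded, rested 12 hours, then given compound at five concentrations or DMSO for 24 hours. After fixation, blocking and antibody staining, PINK1 amount and mitochondrial localization are scored; CCCP serves as control.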
D2 potentiator: Beta-Arrestin HTS for Positive Allosteric Modulators of the Human D2 Dopamine Receptor: Potentiators | D(2) dopamine receptor (Homo sapiens), P14416 | DiscoveRx D2 beta-arrestin cells, luminescence, 90 min; 100% = 57 uM dopamine signal | potentiation, % (no concentration beside the values) | actives 0.23% (n = 360,000) | AID 624464, 2012; active = potentiation of 50% or more; inconclusive = 30% to 50%; inactive = 30% or less;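 note: compound concentration not given in the record; tested on top of an EC20 dose of dopamine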
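D2 cells co-treated with compound plus 50 nM dopamine (EC20) for 90 min at 37 deg C to detect potentiation. Beta-arrestin recruitment was read as enzyme-fragment luminescence after 1 h at ambient temperature. Full response was set by 57 uM dopamine.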
* = called active by the depositor; ? = inconclusive; / = no result given; [ ] = another dose, or the depositor's remark.

No.	SMILES	TRPML1 ag	Six1-Eya2 inh	CtBP-E1A blk	D2 ag	PINK1 modulator	D2 potentiator
1	O=C(Nc1ccc(F)cc1)Nc1nnc(-c2ccco2)s1	-0.3	-4	10	1.4	-1.1%	-2
2	O=C(COC(=O)/C=C/c1ccccc1[N+](=O)[O-])NC1CCS(=O)(=O)C1 (stereo not given)	-0.2	3	0	-2.1	-1.3%	-2
3	O=C(N/N=C\c1cccs1)c1sccc1-n1cccc1	0.4	-10	-28	-3.8	-0.6%	-8
4	CCC(=O)Nc1ccc(-c2ccc(NC(=O)CC)c(OC)c2)cc1OC	-0.1	2	/	-4.9	-0.3%	-76
5	O=C(COc1ccc(F)cc1Cl)NC1CCCCCC1	-0.4	16	/	0.8	1.7%	-7
6	C=CCOc1ccc(S(C)(=O)=O)cc1	-0.6	-1	/	-3.7	-1.0%	1
7	O=C(c1cc(Cl)cc(Cl)c1)N1CCC(=O)N(C(COCc2ccccc2)Cc2ccccc2)CC1 (stereo not given)	1.1	-15	/	-1.1	22%	-11
8	C[C@]12CC[C@@H]3c4ccc(O)cc4CC[C@H]3[C@@H]1C[C@@H](O)[C@@H]2O[C@@H]1O[C@H](C(=O)O)[C@@H](O)[C@H](O)[C@H]1O	-0.8	0	1	-0.8	0.1%	4
9	Cc1ccc(-c2nc3ccc(Br)cn3c2Cc2cccc(F)c2)cc1	5.3	9	-23	-4.8	2.6%	-4
10	Cc1cn([C@H]2C[C@H](O)[C@@H](CCC(=O)NCCc3c[nH]c4ccccc34)O2)c(=O)[nH]c1=O	-0.5	1	2	-1.1	0.0%	-4
11	CCOc1ccc(NC(=O)CN(C)C(=O)/C=C/c2ccco2)cc1OCC	-0.2	3	1	0.3	2.0%	0
12	CCCCN1C(N)=NC[C@@H]1c1ccccc1	0.1	7	/	-4.7	0.8%	-11
13	Cc1cccc(CN2CCc3c([nH]c4ccccc34)C2C(C)(C)C)n1 (stereo not given)	1.7	-13	-9	-1.4	4.3%	-5
14	O=S(=O)(CCN1CCSCC1)c1ccccc1	-0.3	6	-29	-7.5	-0.1%	-4
15	COc1ccc(CCNC(=O)Cn2cccc2C(=O)c2ccccc2C)cc1OC	0.9	1	-4	-2.1	-1.1%	-5
16	O=C(CN1NS(=O)(=O)c2ccccc2C1=O)Nc1ccccc1OC(F)F	-0.7	8	3	-3.5	1.3%[38.3 µM]	-10

Some values from the list:
D2 ag with entry 9 = -4.8
D2 ag with entry 11 = 0.3

Continuation.
No.	SMILES	TRPML1 ag	Six1-Eya2 inh	CtBP-E1A blk	D2 ag	PINK1 modulator	D2 potentiator
17	COc1ccccc1OCC(=O)N1CCNC1=O	-0.5	5	7	2.5	2.7%	-3
18	CCOC(=O)C1=C(COC(=O)c2ccc(OC)c(OC)c2OC)NC(=O)NC1C (stereo not given)	-0.3	6	0	2.6	2.0%	5
19	O=C1CC(C(F)(F)C(F)(F)C(F)(F)F)=Nc2ccccc2N1	-0.5	2	6	-2.5	1.2%	-14
20	CCOC(=O)N1CCC(N(CCN(C)C)C(=S)Nc2ccc(F)c(Cl)c2)CC1	1.3	-1	0	-4.8	3.5%	-5
21	Cc1cc(=O)[nH]c(-n2nc(C)cc2C)n1	-0.4	-1	-2	-0.8	-2.5%	0
22	O=C1[C@@H]2[C@H](C(=O)N1O)[C@H]1C=C[C@@H]2C1	-0.5	5	-3	1.6	1.6%	1
23	O=C(NCc1ccco1)c1cc(-c2ccccc2)c(N2CCOCC2)s1	-0.3	-25	-10	-1.4	-1.8%	-5
24	CCC(C)OC(=O)c1[nH]c2c(c1C)C(=O)CC(c1ccc(N(C)C)cc1)C2 (stereo not given)	0.9	-28	-17	15	6.7%	-1
25	CSc1nnc(NC(=O)c2cc(=O)c3cc(C)cc(C)c3o2)s1	-0.6	3	3	-2.1	-1.4%	-19
26	c1cncc(-c2nnc3n2CCC3)c1	0.6	11	4	-7.9	0.4%	-5
27	CC(C)c1cc(CN2C(C)COCC2C)cc(C(C)C)c1O (stereo not given)	0.5	-11	5	-4.1	4.7%	-27
28	Cc1c(/C=N/NC(=O)c2sc3ccccc3c2Cl)cnn1C	-0.3	-20	?	1.2	-0.3%	-12
29	CC(=O)Nc1ccc(CNc2nc3cc(-c4ccc(F)cc4)sc3c(=O)n2C)cc1	2.4	3	-4	-4.7	7.4%	-17
30	Cc1cccc(C)c1NC(=O)CSc1nc(C)c(CC(=O)c2ccc(Br)cc2)c(C)c1C#N	-0.5	-5	-1	-0.1	3.0%	-12
31	C[C@H](NC(=O)[C@@H]1CSC2c3ccccc3C(=O)N21)C(=O)NCCc1ccccc1 (stereo not given in full)	-0.7	3	12	2.1	0.0%	-9
32	Cc1noc(C)c1COc1ccc(C(=O)OCC(=O)Nc2ccc3ccccc3c2)cc1	2.0	-2	1	-0.1	7.3%	15
33	O=C(c1ccccc1)N1CCCCC(Sc2nnnn2-c2ccccc2)C1=O (stereo not given)	0.9	1	7	-1.8	-5.3%[38.3 µM]	4
34	O=C(CN(Cc1ccccc1Cl)S(=O)(=O)c1ccc(Cl)cc1)N/N=C/c1ccc(C(=O)O)cc1	-0.2	?	?	-5.6	1.8%	-15
35	Cc1cc(=O)n2[nH]c(C)c(-c3ccc(Cl)cc3)c2n1	-0.4	-18	12	-0.5	/	-24
36	O=C(CNC(=O)c1ccccc1O)N/N=C/c1cc(Br)ccc1OC(=O)/C=C/c1ccco1	0.9	-85*	-95*	-6.6	1.8%	-6
37	O=C(Cc1cccc(NC(=O)C2CCCN(C(=O)C3CC3)C2)c1)Nc1cccc(C(=O)N2CCOCC2)c1 (stereo not given)	1.1	2	3	-1.0	-1.6%	-3
38	CCOC(=O)c1sc(NC(NC(=O)c2ccco2)(C(=O)OC)C(F)(F)F)nc1C (stereo not given)	0.5	2	9	-2.3	-2.8%	-8
39	Cc1ccc(NC(=O)N2CCCC2C(=O)NCCC2=CCCCC2)cc1 (stereo not given)	0.0	-3	4	-3.1	/	-15
40	CCCCNC(=O)CN1C(=O)NC2(CCCc3ccccc32)C1=O (stereo not given)	2.6	3	-2	-1.4	-0.1%[38.3 µM]	2
41	Cc1ccn(Cc2n[nH]c(=S)n2Cc2ccccc2)n1	-0.9	12	2	-3.3	-0.4%	-17
42	CCCCNC(=O)NNC(=O)C1CC1(c1ccccc1)c1ccccc1 (stereo not given)	4.1	4	0	6.2	0.2%	-7
43	Cc1cc(NC(=O)CCC(=O)N(c2cccnc2)C(C(=O)NC2CCCC2)c2ccccc2)no1 (stereo not given)	0.8	3	10	-3.3	2.3%	-8
44	COc1ccc(C2C=C(C)Nc3nc(SC)nn32)cc1 (stereo not given)	-1.3	?	?	-1.8	-1.5%	-2
45	O=C(COC(=O)c1cnccn1)NC(=O)c1ccccc1	0.7	-3	1	1.6	2.2%	4
46	Cc1cc(C)n(CC(=O)N2CCc3ccccc32)c(=O)c1C#N	0.3	51	-13	-5.0	-2.0%	-5
47	Cc1cc(N2CCN(C)CC2)ccc1NC(=O)c1ccc(-c2ccc(Cl)cc2)o1	0.9	-20	?	-0.6	-1.7%	7
48	CC1Cc2nc(SCC(N)=O)n(Cc3ccccc3)c(=O)c2S1 (stereo not given)	-0.2	6	-1	0.7	1.1%	-8
49	CCOCCCNCc1ccc(OCc2ccccc2C)c(OC)c1	-0.4	8	5	2.1	1.1%	-14
50	O=C1C=C(c2cc(F)ccc2F)C[C@@H](c2ccc(F)cc2)C1	0.5	9	/	-0.7	1.2%	-6
51	N#Cc1nc(Cc2cccc3ccccc23)oc1NCc1ccco1	-0.1	-13	-19	-0.1	?	-12
52	COc1ccc(N=C2SC(CC(=O)Nc3ccccc3)C(=O)N2CCN2CCOCC2)cc1 (stereo not given)	0.6	-3	6	-3.6	3.2%	-2
53	CSCC[C@H](NC(=O)Cc1c(C)c2c(cc(C)c3c(C)coc32)oc1=O)C(=O)O	0.1	?	-27	0.5	1.0%	3
54	Fc1ccc(Oc2ncccn2)c(F)c1	-0.7	-1	2	2.5	-1.1%	-7
55	COC(=O)c1ccc(CO/N=C/c2ccccc2OC)cc1	3.6	50	/	-3.1	3.3%	-5
56	Nc1nonc1-c1noc(COc2ccccc2Cl)n1	-0.5	5	-9	0.8	0.8%	2
57	Cc1nonc1OCCNc1ccc([N+](=O)[O-])cc1	0.7	-8	-9	-6.6	-0.6%	-5
58	CCO[C@H]1OC(C(=O)N2CCCCCCC2)=C[C@@H](c2ccc(C(F)(F)F)cc2)[C@@H]1CCCO	5.1	3	2	-4.9	1.0%	-11
59	COc1ccc(NC(=O)CSCC(=O)Nc2cc(Cl)ccc2N2CCCC2)cc1	2.2	-19	-19	-1.2	1.0%	-13
60	CCCCCCCCOC(=O)c1cc([N+](=O)[O-])c(Sc2ncnc3nc[nH]c23)c([N+](=O)[O-])c1	0.3	-13	7	12	-1.7%	10
61	C=CCN(c1ccc(C(=O)Nc2ccc(C)cc2)cc1)S(C)(=O)=O	-0.4	8	8	-7.9	-0.8%	-7
62	Cn1cnnc1SCC(=O)Nc1ccc2nc(SCc3ccccc3Cl)sc2c1	0.5	-1	1	-0.9	-0.2%	-13
63	Cc1ccc(CN2CCSCC2)cc1	-0.4	2	/	2.1	-0.6%	-25
64	CCOc1ccc(-n2c(SCc3ccc(C#N)cc3)nnc2-c2cccnc2)cc1	0.2	15	34	-1.0	-0.8%	-22

One compound at a time (already shown). Order of screens: TRPML1 ag, Six1-Eya2 inh, CtBP-E1A blk, D2 ag, PINK1 modulator, D2 potentiator
Profile of Cc1nonc1OCCNc1ccc([N+](=O)[O-])cc1 = 0.7, -8, -9, -6.6, -0.6%, -5
Profile of C=CCN(c1ccc(C(=O)Nc2ccc(C)cc2)cc1)S(C)(=O)=O = -0.4, 8, 8, -7.9, -0.8%, -7
Profile of CCOc1ccc(-n2c(SCc3ccc(C#N)cc3)nnc2-c2cccnc2)cc1 = 0.2, 15, 34, -1.0, -0.8%, -22
Profile of COc1ccc(NC(=O)CSCC(=O)Nc2cc(Cl)ccc2N2CCCC2)cc1 = 2.2, -19, -19, -1.2, 1.0%, -13

Remaining list, next part
No.	SMILES	TRPML1 ag	Six1-Eya2 inh	CtBP-E1A blk	D2 ag	PINK1 modulator	D2 potentiator
65	N#Cc1cc2c(=O)n3ccccc3nc2n(CCCn2ccnc2)c1=N	3.8	-28	-29	-1.6	-0.4%	-8
66	O=C(COC(=O)Cc1ccc(Cl)c(Cl)c1)NCc1ccco1	-0.4	-14	-4	-2.1	4.6%	-3
67	COc1ccc(OC)c(NC(=O)NNC(=O)COc2ccc([N+](=O)[O-])cc2)c1	0.1	-2	12	-2.8	7.4%	-28
68	Cc1ccc(S(=O)(=O)N[C@H](C(=O)N2CCC(C(=O)N[C@H](C(=O)O)c3ccccc3)CC2)C(C)C)cc1	/	0	7	-5.4	0.9%	-28

Screening results as filed in PubChem BioAssay.
